Mtb growth: Confirmatory growth inhibition assay against Mycobacterium tuberculosis H37Rv, potency (AID 1949). most inactive calls were filed without a number and no value below 0 was filed. inhibition, % at 10 µg/mL, or IC50 in µg/mL where a hit was titrated. 1.6% of 100,000 active;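 active = confirmed in a dose series; inconclusive = about 50% or more but not retested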;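 also: bacteria grown 7 days with compound before Alamar blue readout; 0% = untreated bacteria and 100% = reference antibiotic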
Starred values were filed as active, the others as inactive; i = inactive; ? = inconclusive. Some of the compounds tested; the hit share may differ from the screen's.

SMILES	Mtb growth
O=C(c1ccncc1)N1CCN(Cc2ccccc2Br)CC1	i
Cc1cc(NC(=O)c2ccc([N+](=O)[O-])cc2)ccc1NC(=O)Cc1ccccc1	i
CCCOC(=S)N/C(=N/S(=O)(=O)c1ccccc1)c1ccccc1	i
COc1cccc(C2Nc3ccccc3NC3=C2C(=O)CC(C)(C)C3)c1O (stereo not given)	0.1%
CCc1ccc(CCC(=O)Nc2nnc(SCc3ccccc3)s2)o1	5.4%
CCCC(=O)Nc1ccccc1NC(=O)COc1cc(Cl)c(Cl)cc1Cl	i
CCOc1cc(CO)c(Br)cc1OCc1ccc(Cl)cc1Cl	1.8%
Cc1cc(Br)cc(C)c1NC(=O)c1cccc(OC(C)C)c1	8.7%
COC(=O)C1C2C=CC(C1C(=O)OC)C1C(OS(=O)(=O)c3ccc([N+](=O)[O-])cc3)CC21 (stereo not given)	i
COc1cccc(Nc2nc3ccccc3nc2NS(=O)(=O)c2cccs2)c1	i
CCOc1ccc(S(=O)(=O)/N=C(/c2ccccc2)N(CC)CC)cc1	2.2%
Cc1nn(-c2ccccc2)c2sc(C(=O)Nc3ccc(F)c(Cl)c3)cc12	i

In the list so far, these have a Cl atom.
SMILES	Mtb growth
CCCC(=O)Nc1ccccc1NC(=O)COc1cc(Cl)c(Cl)cc1Cl	i
CCOc1cc(CO)c(Br)cc1OCc1ccc(Cl)cc1Cl	1.8%
Cc1nn(-c2ccccc2)c2sc(C(=O)Nc3ccc(F)c(Cl)c3)cc12	i

New compounds follow.
SMILES	Mtb growth
O=C(NCc1ccccc1)c1cc2ccc(O)cc2oc1=O	i
CCOC(=O)c1cc(NC(=O)CSc2nnc(C)s2)ccc1Cl	i
CCN1CCN(c2nn3c(=O)c4ccccc4nc3c3ccccc23)CC1	3.8%
Cc1cc(OCCCOc2ncnc3ccccc23)cc(C)c1Cl	0.7%
NC(=O)COc1ccc(NC(=O)c2cccnc2)cc1	0.3%
Cc1ccc(OCC(=O)Nc2ccc(Oc3ccc4c(c3)C(=O)NC4=O)cc2)cc1C	3.0%
Cc1cc2ccccc2n2c(SCC(=O)NCc3ccc4c(c3)OCO4)nnc12	i
CCOc1ccccc1N/C(N)=N\c1nc(C)cc(C)n1	i
COc1cc(OC)nc(NC(=O)CSc2nc3ccccc3o2)n1	i
O=C(Nc1ccc2snnc2c1)N1CCCC1	i
N#Cc1c(C(F)(F)F)cc(-c2ccccc2)nc1SCC(=O)Nc1ccc(S(N)(=O)=O)cc1	i
Nc1nc(N)nc(COc2ccccc2)n1	0.4%
O=c1c2ccccc2ncn1CCCCOc1ccc(OCc2ccccc2)cc1	i
COc1ccc(-c2c3c(nc4sc(C(=O)Nc5cc(C)on5)c(N)c24)CCC3)cc1	i
COc1ccccc1CNC(=O)C(C)NS(=O)(=O)c1ccc(C)cc1 (stereo not given)	i
COc1ccc(-c2nnc(SCC(=O)Nc3cccc(SC)c3)o2)cc1	?
CCOC(=O)CSc1nc2ccc(I)cc2c(=O)n1-c1ccccc1OC	i
COC(=O)c1c(-c2ccc(Br)cc2)csc1NC(=O)c1ccc(C)o1	19.6%
NC(=NC1CCCCC1)c1ccc(Cl)cc1	i
Cc1c(F)cccc1NC(=O)NC1CCCCC1	i
O=C1OC(c2ccccc2)=N/C1=C/c1ccc(-c2ccc(F)cc2)o1	?
Cc1ccc(C(O)Cn2c(=N)n(CCCN(C)C)c3ccccc32)cc1 (stereo not given)	i
C=CCn1c(SCC(=O)Nc2cc(C)ccc2C)nc2ccccc2c1=O	i
Cc1ccc(C(=O)Nc2cc(C(F)(F)F)ccc2F)s1	i
O=C(CSCc1c(Cl)cccc1Cl)Nc1cccc(Br)c1	15.0%
CC(C)NC(=O)c1cccc(COc2cccc3ccccc23)c1	i
CCOC(=O)N1CCN(C(=O)CN(c2ccc(CC)cc2)S(=O)(=O)c2ccccc2)CC1	1.1%
CCOC(=O)c1cnc2ccc(Br)cc2c1Nc1cccc(O)c1	i
CC(=O)Nc1cccc(NC(=O)c2ccc3c(c2)OCCO3)c1	i
CCOc1ccc(C(=O)NCC(C)NC(=O)c2ccc(OCC)cc2)cc1 (stereo not given)	i
Cc1ccc(C(=O)NC(=S)Nc2cccc(Br)c2)c(C)c1	1.9%
O=C(Nc1ccc(-c2nc3ccccc3c(=O)[nH]2)cc1)c1cccs1	4.3%
COC(=O)c1c(NC(=S)Nc2ccc(F)c(F)c2)sc(C)c1C	i
CCOc1ccc(NC(=O)C(C)N(c2ccc(Oc3ccccc3)cc2)S(C)(=O)=O)cc1 (stereo not given)	i
CC(=O)c1nn(-c2ccc(F)cc2)nc1NC1CCc2ccccc21 (stereo not given)	i
CC(Oc1ccc(Br)cc1)C(=O)N1CCOCC1 (stereo not given)	i
CC(=O)Nc1ccc(N2C(=O)CC(NCCCN3CCOCC3)C2=O)cc1 (stereo not given)	i
Cc1ccc(NC(=S)NC2CCCC2)cc1	12.2%
CCN(CC)c1ccc(-n2nc3cc(C)c(NC(=O)c4ccc(OC)c([N+](=O)[O-])c4)cc3n2)cc1	i
O=C(Nc1ccc(C(=O)O)cc1)/C(=C\C=C\c1ccccc1)NC(=O)c1ccccc1Br	i
CSc1ccc(S(=O)(=O)NCCOc2ccccc2-c2ccccc2)cc1	3.1%
Cc1cc(CSc2ccccc2)ccc1NC(=O)c1ccc(F)cc1	i
CCOc1ccc(NC(=S)Nc2cc(C)ccc2F)cc1	23.0%
OCCCCNCc1ccc(OCc2ccccc2)cc1	i
COc1ccc(S(=O)(=O)N(CC(=O)NC2CC2)c2ccccc2)cc1	i
CC(C)=Cc1c(O)nc2ccccn2c1=O	i
Cc1nn(C(=O)C2CC2)c(C)c1Sc1ccccc1	i
c1ccc(-c2cc(-c3ccccc3)n3ncnc3n2)cc1	i
Cc1ccc(NC(=O)CCSc2nnnn2-c2ccc3c(c2)OCO3)cc1C	i
CSc1ccccc1NC(=O)c1sc2ccccc2c1Cl	i
O=[N+]([O-])c1ccc(-c2ccc(-c3nn4c(-c5ccco5)nnc4s3)o2)cc1	8.7%
COc1ccccc1C1=NN(C(=O)c2ccccc2C)C(c2ccco2)C1 (stereo not given)	i
CC(NC(=O)COc1ccc(S(=O)(=O)NC(C)c2ccccc2)cc1)c1ccccc1 (stereo not given)	i
CC1CCCN(C(=O)C(c2ccccc2)c2ccccc2)C1 (stereo not given)	i
c1ccc(Cc2nc3ccccc3[nH]2)cc1	7.7%
COc1ccc(/C(C#N)=C/c2ccc(F)c(Br)c2)cc1OC	i
O=C(Nc1ccc(NC(=S)NC(=O)c2cccs2)cc1)c1cccc(Cl)c1	i
Cc1cc(OCC(=O)Nc2ccccc2N2CCN(C(=O)C(C)C)CC2)cc(C)c1Cl	i
CC(=O)Nc1ccccc1NC(=O)c1cc(Cl)ccc1Cl	i
COc1ccc2c(CCN)c[nH]c2c1	i

Following part.
SMILES	Mtb growth
Cc1ccc2oc(-c3ccc(NC(=S)NC(=O)COc4ccc(Cl)cc4C)cc3O)nc2c1	2.0%
Cc1cccc(C(=O)NC(=S)Nc2cc(C)c(I)cc2C)c1	3.3%
Cc1ccc(OCCCCn2ccnc2)c(Br)c1	42.2%
Cc1ccc(CC(=O)Nc2nc3ccc([N+](=O)[O-])cc3s2)cc1	i
Cc1ccc(S(=O)(=O)N(CC(=O)N2CCN(Cc3ccccc3)CC2)c2ccccc2F)cc1	i
CN(C)C(=S)NC(=NCc1ccc([N+](=O)[O-])cc1)c1ccccc1	1.4%
COc1ccc(N(CC(=O)Nc2ccccc2-c2ccccc2)S(C)(=O)=O)cc1	3.9%
CC1(C)Cc2c(c(N3CCOCC3)nc3sc4c(NCCc5ccccc5)nnnc4c23)CO1	i
COc1cc(C(=O)Nc2nc(-c3cccc([N+](=O)[O-])c3)cs2)cc(OC)c1OC	1.7%
CC(=O)Nc1c(O)nc(SCC(=O)Nc2nnc(CC(C)C)s2)[nH]c1=O	i
CCOC(=O)C1CCN(C(=S)Nc2ccc(OC)cc2OC)CC1	i
COc1ccc(N(CC(=O)N2CCC(C(N)=O)CC2)S(=O)(=O)c2ccc(F)cc2)cc1	0.7%
C=CCn1c(SCC(=O)Nc2nccs2)nnc1-c1ccc(OC)cc1	i
O=C(CSc1nnnn1-c1ccccc1)N1CCN(C(c2ccccc2)c2ccccc2)CC1	i
COc1ccc(Br)cc1C(=O)NCc1cccnc1	i
CCOC(=O)c1c(NC(=O)CNc2ccc(OC)cc2)sc2c1CCC(C)C2 (stereo not given)	i
CCC(CC)C(=O)Nc1cccc(C(=O)NCc2ccco2)c1	0.5%
CCCC(=O)N1CCC(Cc2ccccc2)CC1	i
Cc1ccc(CN(c2ccc(C(=O)N3CCCCCC3)cc2)S(C)(=O)=O)cc1	i
COc1ccccc1CN1CCN(CC2CC=CCC2)CC1 (stereo not given)	0.5%
Cc1ccc(N2CC(C(=O)Nc3nc4ccccc4s3)CC2=O)cc1Cl (stereo not given)	i
N#CC1=C(N)N(c2ccc(C(F)(F)F)cc2)C(=O)C1	0.7%
CS(=O)(=O)N1CCN(C(=O)c2cccc3ccccc23)CC1	i
CCCNC(=S)Nc1ccc(OC)cc1OC	i

Part of the list above in order of number of heavy atoms, high to low:
SMILES	Mtb growth
Cc1ccc(CN(c2ccc(C(=O)N3CCCCCC3)cc2)S(C)(=O)=O)cc1	i
CCC(CC)C(=O)Nc1cccc(C(=O)NCc2ccco2)c1	0.5%
CS(=O)(=O)N1CCN(C(=O)c2cccc3ccccc23)CC1	i
COc1ccc(Br)cc1C(=O)NCc1cccnc1	i
CCCNC(=S)Nc1ccc(OC)cc1OC	i

Other entries follow.
SMILES	Mtb growth
O=C(O)CSc1nnc(-c2cccs2)n1-c1ccc(Cl)cc1	i
COc1ccc(NC(=O)c2ccc(C)cc2C)cc1Cl	i
O=C(Nc1c(F)c(F)c(F)c(F)c1F)c1ccc(Br)o1	i
COc1ccc(C(=O)CSc2nc(O)cc(=O)n2-c2ccccc2)cc1	i
O=C1NC(=O)C2C1C(c1ccco1)NN2Cc1ccccc1 (stereo not given)	i
Cc1c(Cl)cccc1NC(=O)CSCC(=O)N1CCN(c2ccccc2)CC1	i
O=C(NC(=S)N1CCN(C/C=C/c2ccccc2)CC1)c1ccc(Cl)cc1	0.39µg/mL*
CCC(C)n1c(-c2ccc(C(C)(C)C)cc2)n[nH]c1=S (stereo not given)	i
CCC(C(=O)NCCCN1CCOCC1)c1ccccc1 (stereo not given)	i
CCCC(=O)Nc1ccc(Cl)c(NC(=S)NC(=O)c2ccco2)c1	3.0%
COc1ccc(S(=O)(=O)N(CC(=O)N2CCOCC2)C2CCCCC2)cc1OC	i
Cc1cc2sc(NC(=O)c3ccc4c(c3)OCO4)nc2cc1Cl	i
O=C(NNC(=S)NCc1ccc(F)cc1)c1c[nH]c2ccccc12	i
O=C(COc1ccc(S(=O)(=O)NC2CCCCC2)cc1Cl)N1CCOCC1	i
Cc1cnc(Nc2cccc(Cl)c2)s1	14.3µg/mL*
CSc1nc(N)nc(SC(C(=O)O)c2ccccc2)c1C#N (stereo not given)	i
COc1ccc(CNC(=O)CCc2ccc(S(=O)(=O)NCC(C)C)cc2)cc1	i
CCOC(=O)c1c(-c2ccc(C)o2)csc1NC(=O)CSc1ncn[nH]1	i
O=C(NC(=S)Nc1cccc(-c2ccc(CO)o2)c1)c1cccs1	i
COC(=O)c1c(N)sc(C(=O)N2CCCCC2)c1C	i
O=C1CCC(=O)N1c1cccc(-c2nc3ccccc3o2)c1	2.6%
COc1cccc2cc(C(=O)N3CCN(c4cc(C)cc(C)c4)CC3)c(=O)oc12	i
CC(=O)Nc1sc(/C(C#N)=C/c2ccc(N(C)C)cc2)nc1-c1ccc(C)cc1	i
OC(CN1CCOCC1)Cn1c2ccccc2c2ccccc21 (stereo not given)	i
COCCCNC(=S)Nc1ccc2c(c1)CCC2	i
CCC(Oc1ccccc1)C(=O)NCCCn1ccnc1 (stereo not given)	1.0%
COCCn1c(C)cc(/C=C(/C#N)c2cccc(F)c2)c1C	i
Nc1nc2n(n1)C(c1cccs1)CC(c1ccc(Cl)c(Cl)c1)N2 (stereo not given)	i
NS(=O)(=O)c1ccc(NC(=O)CSc2nc3ccccc3c(=O)n2-c2ccc(Cl)cc2)cc1	i
Cc1ccc(C2=NN(C(=S)Nc3ccccc3)C(c3ccco3)C2)cc1 (stereo not given)	i
O=C(NC(=S)NC1CCCC1)c1cc(I)ccc1Cl	2.2%
COC(=O)c1ccc(NC(=O)c2ccc3c(c2)OCO3)cc1	i
O=C(COc1ccccc1)NC1CCN(Cc2ccccc2)CC1	i
N#Cc1c(=N)nc2oc3ccccc3c3cc(-c4ccccc4)[nH]c1c23	i
CCc1cccc(CC)c1NC(=O)c1ccc(C(=O)Nc2c(CC)cccc2CC)nc1	i
O=C(c1cc2ccccc2oc1=O)N(Cc1ccccc1)c1ccccn1	i
O=C(NC12CC3CC(CC(C3)C1)C2)c1ccc(NS(=O)(=O)c2ccccc2)cc1	34.0%
Cc1cccc(N(CC(=O)Nc2ccc3c(c2)OCCO3)S(C)(=O)=O)c1	i
CC(=O)Nc1ccc(NC(=O)CN(C2CCCCC2)S(=O)(=O)c2ccc(Cl)cc2)cc1	i
CCN(CC)S(=O)(=O)c1ccc(OC)c(NC(=S)NC(=O)COc2cc(C)ccc2C)c1	i
CCCN1CCC(NC(=S)Nc2cccc3ccccc23)CC1	i
CC(C)(C)c1ccc(C(=O)N2CCN(c3cccc(Cl)c3)CC2)cc1	?
CC(C)Oc1ccc(-c2cc(C(=O)Nc3ccncc3)c3ccccc3n2)cc1	i

At a glance, some entries already given:
SMILES	Mtb growth
CCCN1CCC(NC(=S)Nc2cccc3ccccc23)CC1	i
CC(C)(C)c1ccc(C(=O)N2CCN(c3cccc(Cl)c3)CC2)cc1	?
CC(C)Oc1ccc(-c2cc(C(=O)Nc3ccncc3)c3ccccc3n2)cc1	i

Screening results as filed in PubChem BioAssay.
